# Screens as filed in PubChem.
# H5N1 antiviral: MDCK cell protection from H5N1 avian flu; cytopathic effect, luminescence, 72 h; hits give high values; no value below 0 was filed and about half of the inactive calls have no number; reference of the scale not given here; inhibition, % at 50 µM; 0.07% of 96,000 active; in the data active means inhibition above about 25%
# An asterisk follows results filed as active; i = inactive. Not all compounds are listed, so the mix of outcomes need not match the whole.
SMILES,H5N1 antiviral
Cc1cc(C)c(-c2cc(NC(=O)CSc3n[nH]c(N)n3)n(-c3ccccc3)n2)cc1C,0.5
CC(=O)C1=C(C)Nc2ncnn2C1c1ccc(Cl)cc1Cl (stereo unspecified),0.4
COC(=O)c1ccccc1NC(=O)CSc1nnc(-c2ccoc2C)n1C,2.5
CCCCN1C(=O)C(NC(=O)C2CC2)(C(F)(F)F)C2=C1CC(C)(C)CC2=O (stereo unspecified),i
S=C1NC(c2ccccc2)=NCN1c1ccc(Br)cc1,1.6
CCN(CC)C(=O)c1cn(C)c(=O)c2cc(OC)c(OC)cc12,0.7
Cn1cccc1C(=O)Nc1nc(-c2ccccn2)cs1,0.6
Cc1cc(NC(=O)CN2CCCC2c2nc3ccccc3s2)no1 (stereo unspecified),i
COC(=O)/C(=C\Nc1ccc(OC)cc1)NC(=O)c1ccc(Cl)cc1Cl,i
Cc1nnc(SC(C)C(=O)Nc2ccc(S(=O)(=O)N3CCCCC3)cc2)s1 (stereo unspecified),1.0
COc1ccc(OC)c(C(=O)CSc2nnc(Cc3cccs3)n2C)c1,3.7
COc1ccc(Cc2nnc(NC(=O)Cn3cnc4c3c(=O)n(C)c(=O)n4C)s2)cc1OC,i
Cn1c(C(=O)Nc2ccc3c(c2)OCCO3)cc2sccc21,1.0
O=C(CCC1CCCC1)NC1CCCCC1,i
COc1cccc(C(C(=O)Nc2ccc(F)cc2)N(C(=O)Cn2nnc3ccccc32)C2CC2)c1 (stereo unspecified),i
COc1ccc(CC(=O)Nc2ccc(-c3cn4cccc(C)c4n3)cc2)cc1OC,1.3
CCCN1Cc2cccc(C(=O)Nc3ccc(C)cc3)c2C1=O,i
O=C(CCC(=O)c1ccc(Oc2ccccc2)cc1)Nc1ccc(Cl)cc1Cl,0.2
CCOC(=O)CC1=C(C(=O)OCC)C(c2ccc(C)o2)C(C#N)=C(N)O1 (stereo unspecified),0.2
Cc1cc(C(=O)CSc2nnc(-c3ccc(F)cc3)o2)c(C)n1CC1CCCO1 (stereo unspecified),3.2
O=C(CCCn1c(=O)c2sccc2n(CC(=O)OCc2ccccc2)c1=O)NCc1ccco1,i
O=C(CSc1nc2cc(Cl)ccc2o1)Nc1ccc(N2CCOCC2)cc1,i
COc1ccccc1-c1c(C#N)c(SCC(=O)N2CCCC2)nc(C)c1C(N)=O,i
Cc1cccc(Oc2coc3cc(OC(=O)c4cccs4)ccc3c2=O)c1,i
Cc1noc(C(=O)N2CC3(C)CC2CC(C)(C)C3)c1Cl (stereo unspecified),3.4
O=S(=O)(c1cccs1)N1CCN(CC(O)COC2CCCc3ccccc32)CC1 (stereo unspecified),i
COC(=O)C1=C(C)N(Cc2ccc(OC)cc2)C(=O)C1,0.1
COC(=O)c1c(NC(=O)c2cccs2)sc2c1CCC(C)C2 (stereo unspecified),i
O=C(CS(=O)(=O)c1ccccc1)Nc1nc(-c2ccccc2)cs1,i
CCOc1ccccc1OCCCCCc1c(C)n[nH]c1C,i
COc1ccc(Cl)cc1NC(=O)C(C)Sc1n[nH]c(N)n1 (stereo unspecified),1.9
O=C(NCc1ccccc1)C1C2C=CC3(CN(Cc4cccnc4)C(=O)C13)O2 (stereo unspecified),i
COc1ccc(S(=O)(=O)Nc2nncs2)cc1,i
CCOC(=O)N1CCC(NC(=O)c2ccc(NC(=O)C3CCCO3)cc2)CC1 (stereo unspecified),i
CCc1c(C(=O)Nc2ccncc2)csc1C,i
COc1ccccc1N1C(=O)CCC1(C#N)c1ccc(Br)cc1 (stereo unspecified),0.4
COc1ccc(-c2nc3c([nH]2)c(=O)n(C)c(=O)n3C)c(OC)c1,i
O=S(=O)(c1cccs1)N1CN(Cc2ccc(F)cc2)c2nc3ccccc3nc21,i
CCOC(=O)CSc1nnc(CNC(=O)c2cccs2)n1-c1cc(C)ccc1C,3.6
Nc1nonc1-c1noc(CCCCCN2C(=O)c3ccccc3C2=O)n1,0.4
CS(=O)(=O)c1ccccc1COC(=O)Nc1ccc(Cl)cc1,1.4
CCCC(=O)c1cc2c(cc1NC(=O)c1cccs1)OCCO2,i
Cc1ccc(C(=O)C(OC(=O)CN2C(=O)c3ccccc3C2=O)c2ccccc2)cc1 (stereo unspecified),i
O=C(NCc1ccc2c(c1)OCO2)c1ccc(S(=O)(=O)N2CCCCC2)cc1,i
CC(C)c1nnc(NC(=O)CCC(=O)N2CCN(Cc3ccccc3)CC2)s1,0.3
CCc1ccc2[nH]c(=O)c(C(c3nnnn3CC3CCCO3)N3CCN4CCCC4C3)cc2c1 (stereo unspecified),i
O=CNCCCc1nc2ccccc2n1Cc1ccccc1,0.2
O=C(CSc1nc(-c2ccccc2)c(-c2ccccc2)[nH]1)N1CCN(S(=O)(=O)c2ccccc2)CC1,1.6
Cc1cc(C)n(-c2nc3c(c(=O)[nH]c(=O)n3C)n2CC(O)COc2ccccc2)n1 (stereo unspecified),i
COc1ccc(N2C(=O)C3CCCN3C2c2cc(OC)c(OC)cc2OC)cc1 (stereo unspecified),1.5
Cc1[nH]c2ccccc2c1SCC(=O)N1CCCc2ccccc21,3.1
N#Cc1cnc(Nc2nc3ccccc3o2)nc1-c1ccccc1,0.1
CCC(=O)Nc1c(-c2ccc(OC)cc2)c(=O)c2ccccc2n1C,i
COc1ccccc1N1CCN(C(CNC(=O)c2ccco2)c2cccnc2)CC1 (stereo unspecified),i
COc1ccc(CCNC(=O)COC(=O)c2cnc(C)cn2)cc1,1.3
CCCOc1ccccc1C1C(C(=O)OC)=CN(C(C)C)C=C1C(=O)OC,1.8
Cc1nc(C)n(C(=O)N(c2ccccc2)c2ccccc2)n1,1.3
Cc1cc(NC(=O)CCC(=O)N(c2cccnc2)C(C(=O)NC2CCCC2)c2ccccc2)no1 (stereo unspecified),1.2
O=C(NCCCc1ccccc1)c1ccccc1O,i
C/C(=N\NC(=O)C1CC1)c1ccc(Cl)c(Cl)c1,0.6
# (next part)
SMILES,H5N1 antiviral
O=C(NCCCN1CCCC1=O)c1cncc(Br)c1,1.5
O=c1[nH]c2ccccc2n1Cc1ccc(Cl)cc1,0.2
CCCCN(CC)Cc1c(C)[nH]c2ccccc2c1=O,0.1
O=C(c1ccc(N2CCCCS2(=O)=O)cc1)N1CCN(c2ccc(N3CCOCC3)nn2)CC1,0.8
CCOC(=O)N1CCc2c(sc(NC(=O)c3ccc(Cl)s3)c2C(N)=O)C1,i
CCOC(=O)N1CCN(C(=O)C2CCCN(S(=O)(=O)c3cccnc3)C2)CC1 (stereo unspecified),0.7
CCOC(=O)C1=C(C)Nc2nnnn2C1c1cccc(OC)c1OC (stereo unspecified),1.1
COC(=O)C(C(=O)Nc1ncccn1)C1CCCCCC1 (stereo unspecified),0.3
CC(C)(C)c1ccc(C(=O)NNC(=O)c2cccc(Br)c2)cc1,0.3
COc1ccc(-c2n[nH]c(C)c2-c2cnn(-c3ccccc3)c2)c(O)c1C,0.3
COc1ccc(/C=N/NC(=O)c2cccc([N+](=O)[O-])c2)cc1OC(=O)c1ccccc1,i
C/C(=C\C(=O)c1ccccc1)NNc1nc2ccccc2s1,i
CC(C)C(=O)Nc1cccc(NC(=S)NC(=O)c2ccc([N+](=O)[O-])cc2)c1,i
NC(=S)Nc1cc2ccccc2c2ccccc12,i
O=S(=O)(c1ccc(-c2csc(-c3cccnc3)n2)cc1)N1CCCC1,0.1
Cc1ccccc1Cn1cc(NC(=O)c2nc3ncccn3n2)cn1,i
O=S(=O)(c1ccc(F)c(F)c1)N1CCN(Cc2ccc3c(c2)OCO3)CC1,1.0
CC1(C)NC(=O)N(CC(O)CN(Cc2ccccc2)Cc2ccccc2)C1=O (stereo unspecified),i
O=C(NCC1CCCO1)c1cnn2c1NC(c1ccccc1)CC2C(F)(F)F (stereo unspecified),i
COc1ccc(Cn2c(=O)[nH]c3cc(C(=O)NCc4ccc5c(c4)OCO5)ccc3c2=O)cc1,0.3
O=S(=O)(c1ccc(Cl)s1)N1CCN(Cc2ccccc2)CC1,1.2
Cc1ccc(/C=C2\CCC3=C2OC(N)=C(C#N)C3c2ccc(C)cc2)cc1 (stereo unspecified),1.0
CCOC(=O)c1c(C)oc2c1c(C(c1cccnc1)N1CCCCC1)c(O)c1ccccc12 (stereo unspecified),i
CN(C(=O)c1ccccn1)c1nnc(-c2ccccn2)s1,1.1
c1ccc(-n2cccc2CNC2CCCCC2)cc1,i
CN(Cc1ccccc1)C(=O)Cn1c(=O)oc2cc(S(=O)(=O)NCc3ccccc3)ccc21,1.6
Cc1nn(C)c(Oc2cccc(Cl)c2)c1C=O,i
Cc1ccsc1/C=C1\CCc2ccccc2C1=O,i
COc1cc(=O)n2c(n1)SCCC2,i
COC(=O)Cn1c2ccc(C)cc2c2nc(C)sc21,0.6
CSc1nc(-c2ccccc2)nc(N2CCN(C)CC2)c1C(C)=O,i
CCCCCCCCN1C(=O)N(C)C(N(O)C(=O)NC)C1(C)C (stereo unspecified),i
Cc1ccc(C(=O)COC(=O)CNC(=O)COc2ccccc2C)cc1C,i
Cc1cccc(-c2nnc(SCC#N)n2-c2ccccc2)c1,0.2
CC(C)=C1SC(N2CCN(c3cccc(C(F)(F)F)c3)CC2)=NC1=O,i
O=C(Nc1nnc(C2CCCCC2)s1)c1cccs1,0.2
C=CCNC(=S)NNC(=O)c1ccc(OC(C)C)cc1,i
C=CCc1c(C)nc(C)nc1N/N=C/c1ccccc1O,i
CCOc1ccc(NS(=O)(=O)c2ccc(NS(C)(=O)=O)cc2)cc1,1.0
CC(Cc1cccs1)NC(=O)Nc1ccc(Cl)cc1 (stereo unspecified),3.5
Cc1sc(NC(=O)c2ccccc2)c(C(=O)NCCN(C)C)c1C,i
CCN1CCCC1CNC(=O)c1c(O)c2c([nH]c1=O)CCCC2 (stereo unspecified),i
CC1(C)CC(=O)C(C=NCCN2CCN(C(=S)Nc3ccc(F)cc3)CC2)=C(O)C1,0.1
O=P(O)(O)c1ccccc1OCc1ccccc1,i
CC(C)CCOC(=O)C1C2C=CC3(CN(Cc4cccs4)C(=O)C13)O2 (stereo unspecified),0.1
COc1nc(N/N=C/c2cc3c(cc2Br)OCO3)nc(N2CCOCC2)n1,1.9
CC(C)NC(=O)CSc1nc2ccccc2n1-c1ccccc1,i
CCn1c(=O)n(CC)c2cc(S(=O)(=O)N3CCc4ccccc43)ccc21,1.7
O=C(CSc1nnc(-c2ccco2)n1Cc1ccccc1)OC1CCCCC1,i
Cc1nnc(NC(=O)CCC(=O)NCc2cccs2)s1,i
Cc1ccccc1C(=O)Nc1nnc(-c2ccc(F)cc2)o1,1.6
Cc1cccc(C(=O)O/N=C(\N)c2ccc(Br)cc2)c1,i
O=C(CN1CCCC1)N1CCCc2c1c(=O)oc1ccc(OCc3ccccc3)cc21,i
O=C(NCCN1CCCC1)C1CCN(S(=O)(=O)N2CCC3(CC2)OCCO3)CC1,1.0
COc1ccc(-c2cc(C(F)F)n3ncc(C(=O)N4CCCCC4)c3n2)cc1,i
COc1cccc(-c2nn(C)c3sc(C(=O)N4CCOCC4)cc23)c1,5.9
c1ccc(-c2cc(CSc3nc4ccccc4[nH]3)on2)cc1,i
Cc1ccc(S(=O)(=O)N(CCCO)Cc2cc3c(C)ccc(C)c3[nH]c2=O)cc1,1.1
CCn1cc(C(=O)N2CC=C(c3ccccc3)CC2)c(=O)c2ccc(C)nc21,i
CCOC(=O)c1sc(C)c2c(=O)n(CCCN3CCOCC3)cnc12,1.0
# (next part)
SMILES,H5N1 antiviral
CCn1c(CSc2nc(C)cc(C)n2)nnc1SCC(=O)N1CCCc2ccccc21,1.9
COc1ccc(NC(=O)CCNC(=O)Cn2ccc3ccccc3c2=O)c(OC)c1,0.2
CCn1c(SCC(=O)c2ccc(OC)cc2)nnc1C1CC1,0.2
O=C(CSc1ncn[nH]1)NCCc1ccccc1,i
CCn1nc(C(=O)Nc2cccc3ccccc23)c(Cl)c1Cl,i
CCC(C)c1ccc(NC(=O)COC(=O)C2=COCCO2)cc1 (stereo unspecified),0.6
Nc1nc2n(n1)C(c1cccs1)CC(c1ccc(Br)cc1)N2 (stereo unspecified),i
Cc1cccc(NC(=O)c2ccccc2C(=O)O)c1,0.6
CCOC(=O)C1=C(C)NC2=C(C(=O)CCC2)C1c1ccc(N(C)C)cc1 (stereo unspecified),0.6
CC(C)(C)c1ccc(OCC(=O)N2CCN(C=O)CC2)cc1,0.5
COc1ccccc1N1CCN(S(=O)(=O)c2cccc(F)c2)CC1,1.2
Fc1ccc(OCCCCCCN2CCCC2)cc1,2.8
CCCN(C#N)c1nc(NCC)nc(NC(C)C)n1,2.7
